RE007 growth inh = qHTS Assay for Inhibitors of the HIV-1 protein Vpr. S. pombe RE007 Vpr strain, BacTiter-Glo ATP luminescence, 24 h; control for the full effect not named in the record. Potency, µM (titrated, usually from 92.2 µM), for the others: at the top dose activity change, negative = less growth. 0.21% of 360,000 active. AID 651644, 2012; active = well fitted falling curve with a large enough effect; inconclusive = small, poorly fitted or top-dose-only effect; inactive = no such curve, though single readings can be large or run the other way;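 further: on the % scale 0 is the no-effect control and ±100 the full control effect; nearly all actives have a fitted effect of over 50% in size; the assay follows cell death caused by Vpr and the record does not say whether a fall means rescue or toxicity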
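Fission yeast RE007 carrying one integrated HIV-1 vpr copy, seeded at OD 0.01 in PMG+AL medium with 23 nL pinned compound. Grown 24 h at 30 degrees; viability read by BacTiter-Glo luminescence after 5 min.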
MARV entry inh = qHTS for inhibitors of binding or entry into cells for Marburg Virus. Marburg virus pseudotyped entry inhibition, cell reporter; control for the full effect not named in the record; about a third of the inactives were read at about 46 µM. Potency, µM (series often up to 37.8 µM), for the others: at the highest dose activity change, negative = inhibition, hits mostly inhibitors. 1.8% of 300,000 active. AID 540276, 2011; active = well fitted inhibition curve with a large enough effect; inconclusive = small, poorly fitted or top-dose-only effect, or effect the other way; inactive = flat fitted curve, though single readings scatter; tested in HEK293 cells; about a fifth of its hits are not listed in these tables; further: on the % scale 0 is the no-effect control and ±100 the full control effect; luciferase read-out
LASV entry inh = qHTS for Inhibitors of binding or entry into cells for Lassa Virus; AID 540256, 2011; Lassa virus pseudotype entry inhibition, cell reporter; control for the full effect not named in the record; Potency, µM (doses to about 37.9 µM), inactives show at the highest dose activity change, negative = inhibition, usual class: inhibitors; 1.2% of 300,000 active; active means well fitted inhibition curve with a large enough effect; inconclusive means small, poorly fitted or top-dose-only effect, or effect the other way; inactive means flat fitted curve, though single readings scatter; tested in HEK293 cells; further: on the % scale 0 is the no-effect control and ±100 the full control effect; nearly all actives have a fitted effect of over 50% in size; luciferase read-out
NS1 function inh = qHTS Assay for Inhibitors of Influenza NS1 Protein Function; S. cerevisiae slowed by influenza A NS1, growth recovery by OD600; Potency, µM (titrated, usually from 46.1 µM), for inactives: top-dose activity, positive = more growth; 0.4% of 270,000 active; AID 2326, 2010; active means well fitted rising curve with a large enough effect; inconclusive means small, poorly fitted or top-dose-only effect; inactive means no such curve, though single readings can be large or run the other way; further: nearly all actives have a fitted effect of over 50% in size
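Recovery from NS1-induced slow growth read by OD600 in budding yeast switched to galactose assay medium (pH 6.0, -URA) at 1:100 dilution. Compound 23 nl per well; the matching strain lacking NS1 serves as control.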
StopGo reporter = High Throughput Screening for Foot and Mouth Disease Virus Antivirals. 1.2% of 410,000 active. AID 1159524, 2015. Potency, µM (titrated, usually from 57.9 µM), without a hit: at the highest dose signal change, negative = less light. human cells with a luciferase reporter of 2A StopGo recoding; control for the full effect not named in the record; active = well fitted falling curve with a large enough effect; inconclusive = small, poorly fitted or top-dose-only effect; inactive = no such curve, though single readings can be large or run the other way; tested in HEK293T cells; further: on the % scale 0 is the no-effect control and ±100 the full control effect; nearly all actives have a fitted effect of over 45% in size; luciferase light after 4 h
Numbers without * were called inactive; ? = inconclusive; nt = not tested or not shown; [ ] = another dose, or the depositor's remark. Potency means the concentration at half of the fitted maximal effect. Only part of the results is shown, so the mix of outcomes need not match the whole.

#	smiles	RE007 growth inh	MARV entry inh	LASV entry inh	NS1 function inh	StopGo reporter
1	Cc1ccc(C)c(N2CCN(C3CCCCC3NS(=O)(=O)c3ccccc3)CC2)c1 (stereo not drawn)	-4%	nt	nt	-5%	?
2	CCC1Oc2ccccc2N(CC(=O)NCCCN2CCOCC2)C1=O (stereo not drawn)	4%	nt	nt	17%	0%
3	Cc1c(/C(O)=C2/C(=O)C(=O)N(CCN3CCOCC3)C2c2ccco2)cnn1-c1ccccc1 (stereo not drawn)	35%	nt	nt	-9%	?
4	O=C(c1ccc2c(c1)OCO2)C1CCCN(Cc2ccccc2OC(F)F)C1 (stereo not drawn)	-12%	nt	nt	-9%	-1%
5	COc1cc2c(cc1OC)C(C(=O)NC1CC1)C1c3ccccc3CCN1C2=O (stereo not drawn)	2%	nt	nt	4%	-9%
6	CCOC(=O)N1CCN(CC(=O)c2ccc(O)cc2O)CC1	-12%	nt	nt	8%	21%
7	CCCCCSc1nc2c(c(=O)[nH]c(=O)n2C)n1CC	-13%	nt	nt	-38%	0%
8	COc1cccc(-c2nn(CCC#N)cc2C(=O)Nc2ccccc2Cl)c1	-2%	nt	nt	-2%	0%
9	CC(C(=O)Nc1ccc(F)c(F)c1F)N(C)CCOc1ccccc1 (stereo not drawn)	-14%	nt	nt	-12%	-11%
10	Cc1c(C(C)(C)O)[nH]c2ccc(C#N)cc12	6%	nt	nt	-6%	-13%
11	CCOC(=O)N1CCN(S(=O)(=O)c2ccc(C(=O)Nc3sc4c(c3C(N)=O)CCN(CC)C4)cc2)CC1	8%	nt	nt	-6%	24%
12	CCN(CC)C(=O)c1nn(Cc2ccccc2)c(=O)c2ccccc12	2%	nt	nt	-5%	-19%
13	CC(=O)N1CCN(c2ccc(Oc3nc(-c4ccccc4)nc4ccccc34)cc2)CC1	-15%	nt	nt	4%	13%
14	NC(=O)c1nn2c(C(F)(F)F)cc(-c3ccccc3)nc2c1Br	-2%	nt	nt	5%	-8%
15	CN(CCC#N)C(=O)COC(=O)c1ccc2c(c1)C(=O)N(C1CCCCC1)C2=O	2%	nt	nt	8%	-25%
16	O=C(Nc1oc2ccccc2c(=O)c1-c1ccc(Cl)cc1)c1ccco1	4%	nt	nt	-63%	10%
17	CCOC(=O)N1CCC(NC(=O)CCc2c(C)nc3c(c(C)nn3-c3ccccc3)c2C)CC1	-15%	nt	nt	11%	-25%
18	COc1ccc(C2C(C(=O)c3sc(C)nc3C)=C(O)C(=O)N2CCCn2ccnc2)cc1 (stereo not drawn)	16%	nt	nt	2%	-4%
19	CN1CCN(CCCNc2nc3ccccc3c3nc(-c4ccccc4)nn23)CC1	2%	nt	nt	-3%	-5%
20	CC1CN(C(=S)Nc2ccc(Cl)cc2)CC(C)O1 (stereo not drawn)	3%	nt	nt	13%	45%[activator]
21	CCOC(=O)C1=C(COC(=O)CNC(=O)c2ccc(C)cc2)NC(=O)NC1C (stereo not drawn)	-11%	nt	nt	13%	5%
22	O=C(Cn1c(NCCCO)nc2ccccc21)c1cccs1	14%	nt	nt	-7%	-11%
23	O=C(c1noc2c1CCCCC2)N1CCN(C(c2ccccc2)c2ccccc2)CC1	1%	nt	nt	-44%	-16%
24	CSC1=C(C#N)C2(CCCCC2)C(C(=O)Nc2ccccc2)=C(C)N1	-10%	nt	nt	-41%	-21%
25	CCOC(=O)c1ccc(NC(=O)C2CCN(S(=O)(=O)c3ccccc3)CC2)cc1	9%	nt	nt	-50%	-12%
26	Cc1ccc(NS(=O)(=O)c2c(C)ccc3nsnc23)c([N+](=O)[O-])c1	-20%	nt	nt	-2%	40%[activator]
27	CCc1nc(SCC(=O)N2CCc3ccccc32)c2oc3ccccc3c2n1	4%	nt	nt	4%	-15%
28	CCOC(=O)[C@@H]1[C@H]2COc3cc(OC)ccc3[C@@H]2N2C(=O)N(c3ccc(Cl)cc3)C(=O)[C@@]12C	1%	nt	nt	-42%	30%
29	CC1=NN(C(N)=S)C(=O)C1N=Nc1ccccc1O (stereo not drawn)	-6%	nt	nt	15%	23%
30	Clc1ccc(CN2CCSCC2)cc1Cl	-6%	nt	nt	3%	-9%
31	O=C(NCCN1CCOCC1)c1ccc2c(c1)N(Cc1ccccc1)C(=O)c1ccccc1S2	6%	nt	nt	-5%	-2%
32	Cc1nn(C)c(C)c1C(C)NC(=O)c1ccc(OC2CCN(Cc3ccccn3)CC2)cc1 (stereo not drawn)	-9%	nt	nt	-8%	-14%
33	CC(=O)N1CCC(N(CCN2CCOCC2)C(=O)Nc2ccc(Cl)c(Cl)c2)CC1	2%	nt	nt	-37%	50%[activator]
34	COc1ccc(NC(=O)C2CCN(C(=O)[C@@H]3Cc4ccccc4CN3)CC2)cc1	0%	nt	nt	9%	16%
35	COc1ccc(-c2cc3ccc(OC(C)C(=O)O)cc3oc2=O)cc1 (stereo not drawn)	11%	nt	nt	20%	56%[activator]
36	[N-]=[N+]=NC[C@H](c1ccccc1)N1CCN(Cc2ccccc2)CCC1=O	2%	nt	nt	8%	1%
37	CCOc1ccccc1NC(=O)C1CCN(S(C)(=O)=O)CC1	-5%	nt	nt	21%	-6%
38	c1ccc(-c2nnc(-c3ccccn3)nn2)nc1	3%	nt	nt	-73%	?
39	CCOC(=O)N1CCC(NC(=O)C2CCN(Cc3nc(-c4ccc(CC)cc4)oc3C)CC2)CC1	2%	nt	nt	6%	-17%
40	COc1ccc(CCN(C)C2CCCN(S(=O)(=O)c3ccccc3)C2)cc1OC (stereo not drawn)	-13%	nt	nt	16%	-4%

Gathered by group: the entries above with a thiophene ring, fused or not
#	smiles	RE007 growth inh	MARV entry inh	LASV entry inh	NS1 function inh	StopGo reporter
11	CCOC(=O)N1CCN(S(=O)(=O)c2ccc(C(=O)Nc3sc4c(c3C(N)=O)CCN(CC)C4)cc2)CC1	8%	nt	nt	-6%	24%
22	O=C(Cn1c(NCCCO)nc2ccccc21)c1cccs1	14%	nt	nt	-7%	-11%

Following part
#	smiles	RE007 growth inh	MARV entry inh	LASV entry inh	NS1 function inh	StopGo reporter
41	COc1ccc(-c2cn(Cc3cccc(OC)c3)nn2)cc1	0%	nt	nt	7%	63%[activator]
42	CCOCCn1c(=O)c2c(nc3n2CCN3c2ccc(CC)cc2)n(C)c1=O	4%	nt	nt	18%	0%
43	CC(C)C(C(=O)Nc1ccncc1)c1ccc(Cl)cc1 (stereo not drawn)	-11%	nt	nt	-59%	-30%
44	COc1ccc2ccccc2c1CN1CCSCC1	-5%	nt	nt	19%	-19%
45	O=C(c1cccc(Br)c1)N1CCCc2ccccc21	-5%	nt	nt	3%	-2%
46	COc1cccc(CN(C(=O)COc2ccccc2[N+](=O)[O-])C2CCS(=O)(=O)C2)c1 (stereo not drawn)	1%	nt	nt	9%	-13%
47	CC(NC(=O)CN(c1cccc(C(F)(F)F)c1)S(C)(=O)=O)c1ccccc1 (stereo not drawn)	0%	nt	nt	-4%	-23%
48	COc1ccc(NC(=O)c2sc3nc(N4CCCC4)c4c(c3c2N)CC(C)(C)OC4)cc1	1%	nt	nt	13%	?
49	O=C(CN1CCOc2ccccc21)NC1CC1	-8%	nt	nt	?	-17%
50	Cc1ccc(CCN2CC(C(=O)NCc3cccnc3)CC2=O)cc1 (stereo not drawn)	12%	nt	nt	22%	-9%
51	COc1ccc(-c2cc(-c3ccc(F)cc3)nc3c2COc2ccccc2-3)cc1	nt	-29%[46.1 µM]	-16%[46.1 µM]	nt	-13%
52	CCCCc1c(C)nc2c(-c3ccc(Cl)cc3)c(C)[nH]n2c1=O	nt	9%[46.1 µM]	-10%[46.1 µM]	nt	-25%
53	COc1ccc(NC(=O)CSc2cn(CCNC(=O)c3c(F)cccc3F)c3ccccc23)cc1	nt	-19%[46.1 µM]	-8%[46.1 µM]	nt	22%
54	CCCCOC(=O)c1ccc(NC(=O)CC2NCCNC2=O)cc1 (stereo not drawn)	nt	16%[46.1 µM]	-14%[46.1 µM]	nt	17%
55	CSc1nc(N)c2ncn([C@@H]3O[C@H](COP(=O)(O)OP(=O)(O)OP(=O)(O)O)[C@@H](O)[C@H]3O)c2n1	nt	-31%	23%	nt	5%
56	COc1ccc(C(=O)NCCn2cc(SCc3ccc(C(F)(F)F)cc3)c3ccccc32)cc1OC	nt	?	-12%[46.1 µM]	nt	22µM*
57	COc1ccc(S(=O)(=O)N2CCCN(CC(=O)Nc3ccc(OC)cc3OC)CC2)cc1	nt	4%[46.1 µM]	-11%[46.1 µM]	nt	0%
58	COc1ccc(C2CC(=O)c3cnc4c(-c5ccccc5)c(C)nn4c3C2)c(OC)c1 (stereo not drawn)	nt	-1%[46.1 µM]	-5%[46.1 µM]	nt	-18%
59	CCN1CCOC(=O)C1CC(=O)Nc1ccc(C(C)=O)cc1 (stereo not drawn)	nt	7%[46.1 µM]	14%[46.1 µM]	nt	-19%
60	CCOC(=O)c1c(NC(=O)CSc2cn(CCNC(=O)c3c(F)cccc3F)c3ccccc23)sc2c1CCCC2	nt	-3%[46.1 µM]	-22%[46.1 µM]	nt	-17%

Four consecutive records already listed, quoted:
#	smiles	RE007 growth inh	MARV entry inh	LASV entry inh	NS1 function inh	StopGo reporter
57	COc1ccc(S(=O)(=O)N2CCCN(CC(=O)Nc3ccc(OC)cc3OC)CC2)cc1	nt	4%[46.1 µM]	-11%[46.1 µM]	nt	0%
58	COc1ccc(C2CC(=O)c3cnc4c(-c5ccccc5)c(C)nn4c3C2)c(OC)c1 (stereo not drawn)	nt	-1%[46.1 µM]	-5%[46.1 µM]	nt	-18%
59	CCN1CCOC(=O)C1CC(=O)Nc1ccc(C(C)=O)cc1 (stereo not drawn)	nt	7%[46.1 µM]	14%[46.1 µM]	nt	-19%
60	CCOC(=O)c1c(NC(=O)CSc2cn(CCNC(=O)c3c(F)cccc3F)c3ccccc23)sc2c1CCCC2	nt	-3%[46.1 µM]	-22%[46.1 µM]	nt	-17%

The list goes on:
#	smiles	RE007 growth inh	MARV entry inh	LASV entry inh	NS1 function inh	StopGo reporter
61	COc1ccccc1C(=O)NCCn1cc(SCc2ccccc2Cl)c2ccccc21	nt	?	?	nt	?
62	O=C(NCCn1cc(SCc2ccc(F)cc2)c2ccccc21)c1cccs1	nt	-17%[46.1 µM]	-25%[46.1 µM]	nt	?
63	Cc1ccc(C)c(CSc2cn(CCNC(=O)c3ccccc3F)c3ccccc23)c1	nt	?	?	nt	?
64	Clc1ccc2c(c1)-c1c(cnc3cc(-c4ccccc4)nn13)CO2	nt	9%[46.1 µM]	9%[46.1 µM]	nt	3%
65	O=C(Nc1cc(C(F)(F)F)ccc1Cl)c1cc2nc(-c3ccc4c(c3)OCO4)cc(C(F)(F)F)n2n1	nt	6%[46.1 µM]	1%[46.1 µM]	nt	-4%
66	COc1ccc(NC(=O)CN2CCCN(S(=O)(=O)c3ccc(Br)cc3)CC2)c(OC)c1	nt	-16%[46.1 µM]	-14%[46.1 µM]	nt	?
67	CCOC(=O)c1nnc2c(-c3ccc(Cl)cc3)c(C)nn2c1N	nt	16%[46.1 µM]	?	nt	-17%
68	COc1ccc(-c2cc(-c3ccc4c(c3)NC(=O)CO4)nc3c2COc2ccc(C)cc2-3)cc1	nt	-18%[46.1 µM]	12%[46.1 µM]	nt	3%
